RanGTP-Impb inh: inhibitors of RanGTP-importin-beta interaction, primary screen, biochemical, FRET, CFP-Ran, YFP-importin-beta, homogeneous; cell-free CFP-Ran/YFP-importin-beta FRET ratio; Ran GTPase (GTP-bound) - importin-beta complex; inhibition, % (no concentration beside the values); 1.1% of 300,000 active; AID 2216, 2009;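 active means most replicates above 15%; inconclusive means exactly half above 15%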;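 further: 0% = DMSO wells and 100% = Ran loaded with GDP instead of GTP; wells of about 40 µL received 100 nL stock; the first replicate is given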
FGF22 binding: binders of human FGF22 protein, primary screen, FGF22 synaptogenesis inhibitor project, biophysical, thermal shift, single point | calls only at 9.99 µM | AID 651658, 2012 | 1.5% of 340,000 active | recombinant FGF22 thermal shift, SYPRO orange fluorescence; percent of sucrose octasulfate shift, DMSO zero | Fibroblast growth factor 22 (Homo sapiens), Q9HCT0;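 active means melting point raised past a set limit in the mean and every replicate; inconclusive means no clear call; three in four hits are not shown here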
Target sequence (Q9HCT0 whole entry, looked up): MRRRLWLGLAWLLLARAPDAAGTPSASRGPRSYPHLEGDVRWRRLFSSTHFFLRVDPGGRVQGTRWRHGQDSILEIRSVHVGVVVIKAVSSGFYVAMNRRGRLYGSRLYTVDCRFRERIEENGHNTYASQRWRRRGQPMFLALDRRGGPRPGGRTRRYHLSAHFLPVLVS
Vif A3G: inhibitors of Vif binding to APOBEC3G peptide, primary screen, biochemical, TR-FRET, GST-Vif 1-94, biotin-A3G peptide, dose response retest (AID 1117319) | Virion infectivity factor (Human immunodeficiency virus type 1 group M subtype B (isolate … | TR-FRET GST-Vif / biotin-A3G peptide binding; higher % means a stronger effect; test concentration not given here; strong numbers were not always called active | one-dose inhibition, %; IC50 in µM for titrated hits | 0.57% of 260,000 active;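 active means above the screen mean plus three standard deviations and confirmed in dose response; inconclusive means results disagree or hit not tested in dose response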;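 further: Vif residues 1-94 fused to GST binding biotinylated APOBEC3G peptide 110-148; 0% = full assay without inhibitor and 100% = GST in place of GST-Vif; retest series ran down from 100 µM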
UCH37 inh: inhibitors of human UCH37 deubiquitinase, primary screen, biochemical, Ub-AMC cleavage, fluorescence | Ubiquitin carboxyl-terminal hydrolase isozyme L5 (Homo sapiens), Q9Y5K5 | purified proteasome/UCH37 | AID 588478, 2011 | 0.33% of 330,000 active | inhibition, % (no concentration beside the values);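 active means mean of two replicates above 20%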;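 further: 0% = compound-free wells with enzyme and 100% = wells lacking proteasome; stock transfer was 100 nL into about 20 µL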
Target sequence (Q9Y5K5 whole entry, looked up): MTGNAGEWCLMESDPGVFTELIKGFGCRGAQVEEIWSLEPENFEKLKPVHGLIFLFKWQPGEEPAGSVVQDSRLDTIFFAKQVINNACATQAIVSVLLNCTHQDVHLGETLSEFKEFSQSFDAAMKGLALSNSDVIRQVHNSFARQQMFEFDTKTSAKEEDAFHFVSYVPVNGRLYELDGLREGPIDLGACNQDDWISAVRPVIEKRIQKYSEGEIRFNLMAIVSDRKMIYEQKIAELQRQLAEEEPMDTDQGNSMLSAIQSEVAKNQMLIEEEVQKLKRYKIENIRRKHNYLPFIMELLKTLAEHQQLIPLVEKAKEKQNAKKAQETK
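assay system = human UCH37 enzyme supplied as purified proteasome complex | amount = proteasome at 0.15 nM in the dispensed enzyme solution | schedule = 30 min compound-proteasome preincubation then 25 min substrate reaction, room temperature | measured by = fluorescence, ex 355 nm, em 460 nm | benchmarks = no-proteasome wells (full inhibition) and compound-free wells (no inhibition)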
HNF4A DNA FP: change in binding of human HNF4A to DNA, primary screen, biochemical, fluorescence polarization, FITC-DNA | Hepatocyte nuclear factor 4-alpha (Homo sapiens), P41235 | activity change, % at 10 µM | AID 1224865, 2016 | 0.3% of 360,000 active | 1 h; in the data active means activity change above about 30%, passing the limit was not always enough;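 further: controls were the assay level and a saturating level of protein; the project sought stronger binding though the title names inhibitors; some compounds called inactive have numbers as strong as hits; positive values seem to mean higher polarization but the record does not say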
Target sequence (P41235 whole entry, looked up): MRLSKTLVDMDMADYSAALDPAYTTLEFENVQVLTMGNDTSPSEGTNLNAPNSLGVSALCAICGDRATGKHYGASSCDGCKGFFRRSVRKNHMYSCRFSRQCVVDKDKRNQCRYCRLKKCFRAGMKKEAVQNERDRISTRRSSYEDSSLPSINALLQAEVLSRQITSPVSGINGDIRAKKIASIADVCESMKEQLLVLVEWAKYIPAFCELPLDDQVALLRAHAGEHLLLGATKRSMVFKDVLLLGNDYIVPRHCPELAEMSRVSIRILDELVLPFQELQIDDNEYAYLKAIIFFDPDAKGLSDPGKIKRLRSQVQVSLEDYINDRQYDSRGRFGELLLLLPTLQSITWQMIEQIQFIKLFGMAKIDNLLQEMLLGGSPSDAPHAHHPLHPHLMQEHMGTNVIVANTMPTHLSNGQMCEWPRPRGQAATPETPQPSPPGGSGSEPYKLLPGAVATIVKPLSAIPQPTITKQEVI
Ecoli growth: E. coli growth inhibition, primary screen, OD600. 0.21% of 330,000 active. Escherichia coli growth, 23 h; active compounds read low. OD600 absorbance (no concentration beside the values);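 active means OD600 absorbance below the run mean of sample wells minus 3.6 SD, in any replicate, cut at about 0.56 in these data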;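 further: stock transfer was 300 nL into about 60 µL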
AF4-AF9 inh: inhibitors of AF4 peptide binding to AF9, primary screen, biochemical, AlphaScreen, biotin-AF4 peptide, FLAG-AF9, single point. 0.47% of 350,000 active. AID 651704, 2012. inhibition, % at 10 µM;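 active means every replicate reaching a set inhibition limit, whatever the replicate mean, cut at about 25% in these data; inconclusive means mean inhibition reaches that limit but some replicates miss it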;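 further: 0% = plate neutral control median and 100% = total signal loss; the record names both 10 and 1 µM as test concentration; the first replicate is given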
Numbers without * were called inactive; i = inactive; ? = inconclusive; / = no result given; & = joins results of further samples. An excerpt; the hit share may differ from the screen's.

molecule | Vif A3G | Ecoli growth | HNF4A DNA FP | AF4-AF9 inh | FGF22 binding | RanGTP-Impb inh | UCH37 inh
CN1/C(=C/C2CC(=O)NC2=O)C(C)(C)c2ccccc21 (stereo unspecified) | 18% | 0.71 | 8.7 | / | / | / | 5.4
COc1ccccc1CNS(=O)(=O)c1c(C)noc1C | -1% | 0.74 | -1.1 | / | / | 0.9 | -1.5
Cc1ccc(Nc2nc(NCC3CCCO3)nc(N)c2[N+](=O)[O-])cc1 (stereo unspecified) | / | 0.67 | -0.8 | / | / | -1.3 | 9.5
O=C(Nc1ccc2c(c1)OCO2)c1cc(-c2cccnc2)nc2ccccc12 | / | 0.69 | 6.5 | 18 | i | ? | 4.4
Cc1c(Cl)cccc1N(CC(=O)NC1CCCCC1)S(C)(=O)=O | 10% | 0.7 | 0.9 | / | / | 1.6 | 0.5
COc1ccc(C(C)=O)cc1CN1CCCCC1 | / | 0.73 | 5.0 | / | / | -0.1 | -1.3
COc1ccc2c(C)cc(=O)oc2c1OCC(O)CN1CCOCC1 (stereo unspecified) | / | / | 2.1 | -5.2 | i | / | /
c1ccc2c3c([nH]c2c1)C(C1CCCCC1)N(Cc1ncc[nH]1)CC3 (stereo unspecified) | 8% | 0.64 | -2.3 | / | / | 2.8 | -5.0
CC(C)c1nc2sc3c(=S)nc[nH]c3c2c2c1CCC2 | -22% | 0.7 | 1.1 | 1.3 | i | 0.3 | 4.1
C/C(N)=C(/C#N)C(=O)CSc1nnc(-c2ccc3c(c2)OCO3)o1 | 10% | 0.73 | -3.5 | 0.9 | i | -1.6 | 1.8
CC(C)(C)NC(=O)C(c1ccc(F)cc1)N(CC1CCCO1)C(=O)CCC(=O)Nc1ccccn1 (stereo unspecified) | / | 0.66 | -3.4 | -0.6 | i | ? | 1.9
COc1ccc(CCN(C(=O)C(F)(F)F)C(C(=O)NC2CCCCC2)c2cccs2)cc1 (stereo unspecified) | / | 0.71 | -5.5 | -3.2 | i | 1.5 | 0.3
O=C(NCN1CCN(c2ccccc2F)CC1)c1cccnc1 | 29% | 0.71 | 1.3 | / | / | 1.9 | 3.8
Cc1ccc(OC2=NS(=O)(=O)c3ccccc32)cc1 | 17% | 0.68 | -3.7 | / | / | 1.8 | 3.8
COc1ccccc1OP(=O)(O)Oc1ccccc1OC | 5% | 0.69 | -2.5 | -0.9 | i | 0.4 | 1.7
O=C(CC1Sc2ncnn2C1=O)Nc1ccc(Cl)cc1 (stereo unspecified) | ? | 0.71 | / | -3.7 | i | -1.8 | 6.7
Cc1cccc(C(=O)OCC(=O)Nc2ccc(N3CCCCC3)cc2)c1O | -1%&1% | 0.76 | -0.3 | / | / | -1.6 | 1.3
O=C(c1ccc(N2CCN(C(=O)c3cccc(F)c3)CC2)cc1)c1cccc(F)c1 | / | 0.71 | 3.4 | -1.4 | i | 0.2 | -5.0
O=C(NCCCn1ccnc1)c1ccc(Cl)c(S(=O)(=O)N2CCOCC2)c1 | -11% | 0.68 | -3.2 | -23 | / | -0.3 | 2.5
NC1=NS(=O)(=O)NC1c1cccc(F)c1 (stereo unspecified) | -14% | 0.68 | -3.2 | -2.3 | i | -4.9 | 3.8
CC(C)c1ccc(-c2noc(C3CCCN(C(=O)c4ccc(F)cc4F)C3)n2)cc1 (stereo unspecified) | 3% | 0.68 | -2.3 | / | / | ? | 0.9
O=C(c1cc(COc2ccc(F)cc2Cl)on1)N1CCCCCCC1 | / | 0.69 | 0.3 | -1.3 | i | 1.9 | 3.8
Cc1ccccc1OCC(O)CN(Cc1ccccc1O)C1CCCCC1 (stereo unspecified) | / | 0.65 | -3.3 | 3.1 | i | 4.1 | 2.1
Cc1ccc2[nH]c(CCN(C)C)c(CN3CCOCC3)c2c1 | -4% | 0.69 | -3.4 | 7.9 | i | / | 3.1
Cn1c(=O)n(Cc2ccc(Br)cc2)c2ccccc21 | 8% | 0.67 | 3.9 | 1.1 | i | 0.4 | 0.1
CCCS(=O)(=O)N1CCC(C(=O)NCCCN(CC)c2cccc(C)c2)CC1 | 76% | 0.77 | -2.9 | / | / | / | -4.5
CCC(C(=O)NCc1ccc(OC)cc1)n1nc(C)n2c(cc3occc32)c1=O (stereo unspecified) | 0% | 0.69 | 3.6 | / | / | -0.8 | 1.5
CCCNC(=O)COc1ccc(S(=O)(=O)Nc2ccc(C)cc2)cc1 | -2% | 0.72 | -3.4 | 5.3 | i | 1.7 | 2.6
CC(C)(C)NC(=O)CC(c1ccccc1)c1ccccc1O (stereo unspecified) | 3% | 0.68 | -1.0 | / | / | -0.2 | 3.6
Cc1ccc(NC(=O)c2ccc(C)c(NC3=NC4CS(=O)(=O)CC4S3)c2)cc1C (stereo unspecified) | / | 0.78 | 0.7 | -7.5 | i | 2.1 | 3.2
O=C(O)CN1C(=O)/C(=C\c2cc(Br)ccc2OCc2ccc(Cl)cc2)SC1=S | / | 0.64 | 0.3 | 0.7 | i | 0.8 | 23*
COc1ccc(C=C(C#N)C(=O)c2ccccc2)cc1 | / | / | 3.1 | 1.1 | i | / | /
O=C1CSC(c2cccc([N+](=O)[O-])c2)N1CCc1ccccc1 (stereo unspecified) | 3% | 0.66 | 3.1 | 2.6 | i | -1.3 | 4.4
O=C(OCc1ccc(Br)cc1)c1cc([N+](=O)[O-])ccc1N1CCOCC1 | -2% | / | -1.9 | 5.4 | i | / | /
COc1cc(OC)cc(C(=O)NNC(=O)c2nn(C)c(=O)c3ccccc23)c1 | -9% | / | -2.7 | -0.8 | i | / | /
O=C(c1[nH]c(C(F)(F)F)nc1-c1ccccc1)N1CCC(Cc2ccccc2)CC1 | / | / | 1.6 | 0.9 | i | / | /
Cc1cc(C)cc(OCC(=O)OC/C(O)=C(\C#N)c2nc3ccccc3[nH]2)c1 | / | 0.71 | 15 | / | / | -3.1 | -2.0
CC1CC(C)(C)CC2(C1)NC(=O)N(CC(=O)NCCc1c[nH]c3ccccc13)C2=O (stereo unspecified) | / | 0.73 | -1.6 | / | / | -0.3 | 5.7
N#Cc1ccc(Oc2nc(C#N)cc(-c3ccccc3)n2)cc1 | -65% | 0.71 | -2.2 | -0.7 | i | 2.4 | 5.1
Cc1cc(C(=O)OCC(=O)NC2(C#N)CCCCC2)c(C)o1 | -8% | 0.67 | 2.4 | -7.8 | i | / | 3.0
COc1cc(/C=C(\C#N)C(=O)c2ccc(O)c(O)c2)cc(I)c1O | / | / | 110 | 0.9 | i | / | 12
Cc1ccc(C23OCCN2CCn2nc4ccccc4c23)cc1 (stereo unspecified) | / | 0.67 | -0.6 | -6.8 | i | / | -12
Cc1cccc(NC(=O)CN(C)S(=O)(=O)c2ccc(Cl)cc2)n1 | -2% | 0.73 | -5.1 | / | / | 2.2 | 4.2
Cc1cc(=O)oc2cc(OC(C)C)ccc12 | 18% | 0.64 | 2.4 | / | / | -3.4 | -131
COc1ccc(NC(=O)CN(C)C(=O)c2ccccc2SCC(=O)N2CCCC2)cc1 | / | 0.68 | -1.7 | 2.2 | i | / | 4.6
Cc1nc(SCc2nc3ccc(C(=O)c4ccccc4)cc3[nH]2)c2oc3ccccc3c2n1 | / | 0.72 | -0.1 | -3.7 | i | / | 0.3
O=C(CN1CCOCC1)Nc1ccc(NC(=O)CN2CCOCC2)c(Cl)c1 | 15% | 0.7 | 1.8 | / | / | 2.6 | 3.4
CC1CCCCC12NC(=O)N(CC(=O)OCc1ccccc1Cl)C2=O (stereo unspecified) | -1% | 0.69 | 1.4 | -0.5 | i | / | 1.0
Cc1ccc2nc(SCC(=O)NCc3cccs3)[nH]c2c1 | / | 0.67 | -0.3 | 0.4 | i | 0.0 | 5.1
Cc1ccc(/C=C/S(=O)(=O)NCC(=O)OCC(=O)Nc2ccc(C(=O)N(C)C)cc2)cc1 | -9% | 0.7 | -4.2 | -0.7 | i | / | 1.1
CCOc1ccc(S(=O)(=O)N2CCN(C(=O)c3ccc(Cl)c(S(=O)(=O)N4CCOCC4)c3)CC2)cc1 | / | 0.7 | -1.0 | 1.6 | i | / | 1.9
COc1ccc(Br)cc1CNC(=O)C1CCN(C(=O)N(C)C)CC1 | -2% | 0.72 | 0.3 | 2.5 | i | 3.6 | 0.6
CCOC(=O)C1=C(C)c2ccccc2N(S(=O)(=O)C(F)(F)F)C1C(=O)OCC (stereo unspecified) | -2% | / | 8.2 | 0.5 | i | / | /
Cc1ccc(NC(=O)c2cc(S(=O)(=O)NCCC3=CCCCC3)ccc2F)cc1F | / | 0.72 | 0.1 | / | / | -1.2 | 4.7
O=C(NCC(c1ccco1)N1CCCC1)c1cccc(NS(=O)(=O)c2ccc(Br)cc2)c1 (stereo unspecified) | -2% | 0.69 | -0.2 | 0.4 | i | 2.2 | 2.0
NC(N)=Nc1nc(-c2ccccc2)c2ccccc2n1 | -1% | 0.66 | 4.2 | 14 | i | 26* | -43
CC(=O)NS(=O)(=O)c1ccc(NC(=O)c2ccc(Br)o2)cc1 | -2% | 0.75 | 3.3 | / | / | 0.2 | 1.0
Cc1ccc(C)c(-c2cc(C(=O)NC3CC3)c3ccccc3n2)c1 | / | 0.66 | -4.1 | -0.3 | i | / | 1.5
Cc1onc(-c2c(F)cccc2Cl)c1C(=O)OCC(=O)NCc1ccco1 | -7%&20% | 0.69 | -2.6 | / | / | -1.6 | -0.1
N#Cc1ccc(C(=O)Nc2cccc3ccccc23)c(F)c1 | / | 0.71 | 5.6 | -11 | i | 2.7 | 2.0

Record cards, from the list above.
Cc1cc(=O)oc2cc(OC(C)C)ccc12 is entered as Vif A3G = 18%; Ecoli growth = 0.64; HNF4A DNA FP = 2.4; AF4-AF9 inh = /; FGF22 binding = /; RanGTP-Impb inh = -3.4; UCH37 inh = -131
Cc1onc(-c2c(F)cccc2Cl)c1C(=O)OCC(=O)NCc1ccco1 is entered as Vif A3G = -7%&20%; Ecoli growth = 0.69; HNF4A DNA FP = -2.6; AF4-AF9 inh = /; FGF22 binding = /; RanGTP-Impb inh = -1.6; UCH37 inh = -0.1

Next compounds
molecule | Vif A3G | Ecoli growth | HNF4A DNA FP | AF4-AF9 inh | FGF22 binding | RanGTP-Impb inh | UCH37 inh
CCNc1c(NC(=O)c2ccc3c(c2)OCO3)c(=O)oc2ccccc12 | / | 0.7 | -3.9 | -0.1 | i | 6.6 | -2.0
COc1ccccc1NCCC(=O)OCC(=O)NCc1ccco1 | 14µM* | 0.68 | -21 | / | / | 1.1 | -0.7
O=S(=O)(c1ccccc1)N1CCNc2ccccc21 | -4% | 0.68 | 1.0 | 3.2 | i | / | 2.6
CCSc1nnc(C)c(=O)n1COC(=O)c1ccc(S(=O)(=O)N2CCCC2)cc1 | 12% | 0.67 | 4.3 | / | / | 1.8 | 6.1
O=C(COc1coc(CN2CCN(c3ccccc3F)CC2)cc1=O)NC1CCCCC1 | 8% | 0.61 | 0.2 | 0.3 | / | -5.3 | 4.2
